Compound activity: PubChem BioAssay, National Center for Advancing Translational Sciences (NCATS)
Menin MLL FP FL: menin-MLL binding inhibition, fluorescein peptide | FP activity change, % at 61.4 µM | 290,000 tested, under 10 active | Fluorescence polarization, fluorescein-MLL peptide displacement from menin; inconclusive = falling polarisation curve, or a change in total fluorescence; inactive = total fluorescence flat and polarisation flat or rising; no compound was filed as active; the % refers to the polarisation; negative = inhibition;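 further: % of control where 0% means no effect; inhibitors lower the polarisation; unlabelled MLL peptide was the positive control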
gsp ag: agonists of gsp mutant (McCune-Albright syndrome). 0.13% of 340,000 active. gsp mutant cells, cAMP HTRF, 30 min; control for the full effect not named in the record. Potency, µM (titrated, usually from 76.9 µM), without a hit: at the top dose activation (cAMP increase), usual class: activators. AID 624287; active = well fitted activation curve with a large enough effect; inconclusive = small, poorly fitted or top-dose-only effect, or another doubt; inactive = no such curve, though single readings can be large or run the other way; cell line not stated here;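 further: phosphodiesterase inhibitor Ro 20-1724 added with compounds to block cAMP breakdown; potency means the concentration at half of the fitted maximal effect; nearly all actives have a fitted effect of over 60% in size; about a fifth of the inactives were tested at one dose only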
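Cells stably selected in G418 were plated at 2000/well, grown 16-24 hr, then given compounds in DMSO with the PDE inhibitor […] (300 uM solution added) for 30 min at 37C; cAMP was read by HTRF.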
ClpP mod: qHTS Assay for Activators of ClpP | ATP-dependent Clp protease proteolytic subunit (Bacillus subtilis (strain 168)), P80244 | purified B. subtilis ClpP, FRET peptide cleavage, 20 min | Potency, µM (series often up to 57.5 µM), inactives show at the highest dose activity change, negative = active | 1.9% of 340,000 active | AID 651965, 2013; active = well fitted falling curve with a large enough effect; inconclusive = small, poorly fitted or top-dose-only effect; inactive = no such curve, though single readings can be large or run the other way; further: potency means the concentration at half of the fitted maximal effect; the source files actives as falling curves though it sought activators and does not explain the sign; nearly all actives have a fitted effect of over 65% in size; many hits overshoot -100%
Target sequence (P80244 whole entry, looked up): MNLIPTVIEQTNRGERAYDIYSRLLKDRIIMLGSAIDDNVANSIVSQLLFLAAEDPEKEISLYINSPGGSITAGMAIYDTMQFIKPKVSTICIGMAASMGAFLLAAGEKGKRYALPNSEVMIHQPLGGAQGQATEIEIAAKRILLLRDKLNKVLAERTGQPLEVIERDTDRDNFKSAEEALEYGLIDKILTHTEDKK
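Buffer: 100 mM Tris/HCl pH8, 100 mM KCl, 0.05% low protease BSA, 2.5% glycerol, 0.01% Tween-20. ClpP 10 microg/mL final; 20 min RT; delta FRET normalized to ADEP and DMSO controls.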
TRPV1 potentiator: potentiators of human vanilloid receptor 1 (TRPV1); potentiation, % at 8.33 µM; 0.02% of 320,000 active; Q8NER1; TRPV1-expressing cells, Fluo-8 calcium influx, capsaicin EC20 potentiation; host cell line not named in the record; control for the full effect not named in the record; active means potentiation above 80%; inconclusive means 30% to 80%; inactive means below 30%; further: 0% is about no effect
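Fluo-8 calcium influx in TRPV1-expressing cells, kinetic read (ex 480/em 520 nm). Compound added and read 3 min for agonist activity, followed by capsaicin at EC20 final and 2 min further read for enhancement.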
Sfp PPTase inh: blocks B. subtilis Sfp PPTase activity. Q9F4F7. Biochemical Sfp PPTase activity, qHTS. Potency, µM, for inactives: max response, negative = inhibition, most hits filed as inhibitors. 3.5% of 310,000 active. AID 1490; active means well fitted inhibition curve with a large enough effect; inconclusive means small, poorly fitted or top-dose-only effect, or another doubt; inactive means no such curve, though single readings can be large or run the other way;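 further: the enzyme is Sfp with the accession as filed and its product quenches rhodamine fluorescence; potency means the concentration at half of the fitted maximal effect; 0% = enzyme reaction without inhibitor and -100% = no enzyme wells; top concentration of the series not given in the record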
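Fluorescence-quenching assay: 15 nM Sfp-PPTase preincubated 15 min at room temperature with compound, then 5 uM rhodamine-CoA and 12.5 uM BHQ-2-labelled YbbR peptide added. Fluorescence (ex 525/em 598 nm) read at start and after 30 min; difference gives rate.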
TRPML1 blocker: human mucolipin-1 channel inhibition | TRPML1-inducible cells, Ca2+ dye fluorescence, FDSS; hits give low values; inhibition of EC80 agonist-evoked calcium signal | activity change, negative = inhibition, % (concentration not given with the values) | 0.02% of 390,000 active | AID 624415 | Q9GZU1; in the data active means activity change below about -50%; inconclusive means about -30% to -50%; inactive means above about -30%;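 further: stimulus is agonist 54-4 at its EC80 concentration; on the % scale 0 is the no-effect control and ±100 the full control effect; compound concentration not given in the record; the text of the record puts the active cut at -80%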
Target sequence (Q9GZU1 whole entry, looked up): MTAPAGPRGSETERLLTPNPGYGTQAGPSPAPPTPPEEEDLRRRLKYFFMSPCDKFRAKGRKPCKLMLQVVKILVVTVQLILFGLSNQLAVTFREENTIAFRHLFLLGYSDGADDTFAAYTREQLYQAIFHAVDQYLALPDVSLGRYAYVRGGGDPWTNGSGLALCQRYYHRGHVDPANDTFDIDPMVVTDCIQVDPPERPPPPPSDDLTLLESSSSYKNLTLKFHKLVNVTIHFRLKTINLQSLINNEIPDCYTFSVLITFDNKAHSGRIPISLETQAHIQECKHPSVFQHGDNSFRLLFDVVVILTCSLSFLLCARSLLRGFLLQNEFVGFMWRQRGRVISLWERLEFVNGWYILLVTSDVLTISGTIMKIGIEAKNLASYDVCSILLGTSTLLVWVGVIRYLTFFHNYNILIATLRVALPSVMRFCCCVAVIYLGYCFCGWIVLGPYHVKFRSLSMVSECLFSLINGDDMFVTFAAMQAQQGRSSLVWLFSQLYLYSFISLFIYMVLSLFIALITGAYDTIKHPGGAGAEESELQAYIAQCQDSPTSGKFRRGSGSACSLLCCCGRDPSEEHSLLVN
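Calcium fluorescence in TRPML1-DL cells induced overnight with Tet: a 110 s read after compound pin addition, then a 110 s antagonist read after challenge with 54-4 at 4 uM final (EC80).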
gsp antag: antagonizes gsp, the McCune-Albright syndrome mutation; gsp-mutant cells, cAMP HTRF, 30 min; control for the full effect not named in the record; 0.4% of 340,000 active; Potency, µM (titrated, usually from 76.9 µM), for the others: at the highest dose activity change, negative = inhibition, usual class: inhibitors; AID 624288; active = falling curve of any shape with a large fitted effect; inconclusive = falling curve, mostly with a smaller effect; inactive = flat or rising curve; cell line not stated here;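 further: intracellular cAMP measured with PDE inhibitor Ro 20-1724 present during compound exposure; potency means the concentration at half of the fitted maximal effect; on the % scale 0 is the no-effect control and ±100 the full control effect; nearly all actives have a fitted effect of over 65% in size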
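Measurement of cellular cAMP by homogeneous time-resolved fluorescence following a 30 min compound exposure at 37C. The PDE inhibitor […] was present throughout; the assay buffer was DPBS with 0.05% BSA and 0.005% Tween 20.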
Numbers without * were called inactive; u = inconclusive; x = no result given; & = joins results of further samples; [ ] = dose if it differs, or a comment.

SMILES | Menin MLL FP FL | gsp ag | ClpP mod | TRPV1 potentiator | Sfp PPTase inh | TRPML1 blocker | gsp antag
COc1ccc(N2CCN(C(=O)CCCNC(=O)Cn3cnc4sc(C)c(C)c4c3=O)CC2)cc1 | -2.0 | -8%[15.4 µM] | 0.8% | 0 | 10% | 10 | 13%
OC(COc1ccccc1)CN1CCN(Cc2ccc3c(c2)OCO3)CC1 (stereo not given) | -1.5 | -38%[inhibitor] | x | -20 | -17% | -21 | 8%
CCCc1cc(C(=O)Nc2cccnc2)no1 | 2.8 | -52%[inhibitor] | -1.0% | x | 15% | 9 | -2%
COc1ccc(S(=O)(=O)N2CCSC2c2ccc(OC)c(OC)c2)cc1 (stereo not given) | 4.1 | -28% | -0.3% | -5 | -8% | 31 | u
CC1CCCN(CCCNC(=O)c2cc3c(Cl)nc4ccccc4c3s2)C1 (stereo not given) | -12 | u | -2.6% | 5 | 4% | 4&-19 | 5%
CCOC(=O)CNC(=O)CSc1cc(C)nc2ccc(OC)cc12 | -0.1 | 8%[15.4 µM] | x | 4 | 15% | 2 | 4%
O=C(Nc1ccc2cccnc2c1)c1ccc(Br)cc1 | 0.5 | 0% | -2.9% | -31 | -10% | 12 | -26%
CC(=O)NCCc1ccc(S(=O)(=O)N2CCOCC2)cc1 | 2.8 | -25% | -1.3% | -2 | 17% | -4 | -6%
COc1cc(/C=C2\SC(=Nc3ccc(F)cc3)N(c3ccc(F)cc3)C2=O)ccc1OCC(=O)O | 0.6 | x | x | -13 | -28% | x | x
O=S(=O)(Nc1cccc2ncccc12)c1cccc(C(F)(F)F)c1 | x | -49%[inhibitor] | -2.5% | u | x | 16 | -12%
O=C(N/N=C\c1cccnc1)c1cc(-c2ccc(Cl)s2)[nH]n1 | 5.4 | 11% | -4.9% | 0 | -19% | -16 | -2%
CCNS(=O)(=O)c1ccc(Br)c(OC)c1 | -0.2 | -3% | 0.2% | 5 | 14% | -4 | -7%
CN1C(=O)C(=O)N(c2cccc(C(F)(F)F)c2)C1=O | x | -4%[15.4 µM] | 1.3% | x | x | -10 | -10%
Cc1cccc(C(=O)O/N=C/c2c(Cl)n(C)c3ccccc23)c1 | -0.1 | -7% | -8.1% | 13 | -8% | 20 | 4%
COc1ccc(N2CCN(C(=O)Cn3cnc4sc(C)c(S(=O)(=O)N5CCOCC5)c4c3=O)CC2)cc1 | 0.0 | 14%[15.4 µM] | x | 5 | 9% | 3 | -11%
O=C1C(=O)N(CCCn2ccnc2)C(c2ccc([N+](=O)[O-])cc2)/C1=C(\O)c1ccc2c(c1)OCCO2 (stereo not given) | x | 5% | u | 8 | x | -1 | 2%
COc1ccc(-c2nnc(SCC(=O)N(C)C3CCS(=O)(=O)C3)n2N)cc1OC (stereo not given) | 0.2 | -80%[inhibitor] | -1.3% | -23 | 1% | -6 | 5%
Cc1[nH]c2ccccc2c1/C=N/NC(=O)c1cccc(S(=O)(=O)Nc2ccccc2Cl)c1 | 10 | -5% | -4.8% | 5 | 8% | 17 | -18%
O=S(=O)(NCC(Nc1ccc(Cl)cc1)c1ccccc1)c1ccccc1 (stereo not given) | 1.2 | -42%[inhibitor] | 0.0%&-1.8% | 3 | 34%[activator] | 11&1 | -21%
CCCCn1c(N)c(N(CC(C)C)C(=O)C2CCN(S(=O)(=O)c3ccc(C)c(C)c3)CC2)c(=O)[nH]c1=O | 7.3 | 3% | -3.6% | 21 | 10% | 1 | -7%
COc1ccc(NC(=O)COC(=O)c2cccc(S(=O)(=O)N3CCCCC3)c2)c(OC)c1 | x | -4% | 1.3% | 6 | x | 14 | -27%
CC(C)(C)C(=O)Nc1c2c(nn1-c1cccc(Cl)c1)CS(=O)(=O)C2 | 5.4 | 9% | 1.0% | 2 | 3% | x | 0%
CCCCOCCCNC(=O)Cc1cccs1 | 2.6 | 7% | -0.7% | -11 | 3% | -1 | -3%
N/C(=N\S(=O)(=O)c1cc(C(F)(F)F)cc(C(F)(F)F)c1)c1cccs1 | -0.3 | 2% | 0.8% | -15 | 18% | 40 | -16%
O=C(CN1CCN(S(=O)(=O)c2ccccc2)CC1)Nc1ccc(Cl)c([N+](=O)[O-])c1 | x | 2% | 1.6% | 1 | x | -4 | -3%
COc1cc(CNCCO)cc(Br)c1OCc1cccs1 | 0.7 | -61%[inhibitor] | 1.3% | 5 | 8% | 1 | 19%
COc1ccc(Cl)cc1N(CC(=O)N/N=C/c1ccc(OC(C)C)cc1)S(=O)(=O)c1ccc(C)c([N+](=O)[O-])c1 | 1.8 | -2%[15.4 µM] | 1.5% | -2 | -7% | 3 | -4%
O=C(N/N=C/c1nn(-c2ccccc2)cc1-c1ccccc1)c1ccncc1 | 3.1 | 3% | 17% | -6 | 12% | 0 | -8%
COc1ccc(OC)c(C2/C(=C(\O)c3ccc(OC)c(Cl)c3)C(=O)C(=O)N2CCN(C)C)c1 (stereo not given) | -0.7 | 13% | -7.5% | 3 | 20% | 13 | 20%
O=C(COc1ccc(-c2nnco2)cc1)N1CCN(S(=O)(=O)c2ccccc2)CC1 | 0.0 | -13% | -1.3% | -8 | 18% | -10 | -18%
C[C@H](CO)N1C[C@H](C)[C@@H](CN(C)CC2CCCCC2)Oc2c(NS(=O)(=O)c3ccc(F)cc3)cccc2C1=O | x | 2% | -0.3% | x | x | -5 | -3%
O=C(NCC(=O)N1CCN(Cc2ccccc2)CC1)c1cccs1 | x | -34%[inhibitor] | -3.3% | x | x | -16 | 7%
COc1ccc(-c2nsc3c(SCc4ccccc4)ncnc23)cc1 | -1.7 | 4% | u | -2 | 6% | 10 | 14%
O=C(O)CN1CCN(c2ncc(C(F)(F)F)cc2Cl)CC1 | -0.1 | u | x | 3 | 3% | 4 | -1%
Cc1ccc(OCCn2cnc3cc([N+](=O)[O-])ccc3c2=O)cc1 | -1.6 | -5%[15.4 µM] | -0.2% | -1 | 5% | 2 | 12%
Cc1ccc(SCc2c(C(=O)N/N=C/c3ccc4c(c3)OCO4)nnn2-c2nonc2N)cc1 | -0.3 | -14% | 11% | 3 | 18% | -10 | u
COC(=O)c1ccc(OCC(=O)NC(C)(C)C)cc1 | 1.3 | -24% | 1.7% | 7 | -11% | -4 | 8%
Cc1cc(Cl)ccc1NC(=S)N1CCN(Cc2ccccc2)CC1 | 0.8 | 16% | 4.0% | -3 | 14% | -10 | 5%
COc1ccc(NS(=O)(=O)CC(C)C)c(OC)c1 | x | 3% | -2.4% | 5 | 6% | 4 | 5%
CCCNc1nc(C)cc(-c2cc(C(=O)NCc3ccccc3)on2)n1 | 0.9 | -12% | -5.2% | 10 | 4% | -8 | -3%
CCOC(=O)N1CCC(N2CCN(c3cc(C)ccc3C)CC2)CC1 | 3.7 | -8% | -0.5% | 0 | -1% | 0 | 3%
Cn1c(=O)c2cc(S(=O)(=O)N3CCOCC3)ccc2n(C)c1=O | -0.9 | u | -0.2% | 11 | 10% | -6 | 8%
CC1(C)CC(=O)C2=C(C1)N(c1ccccc1C#N)C(N)=C(C#N)C2c1cccs1 (stereo not given) | 6.9 | 28% | 0.5% | 0 | -17% | 18 | -17%
O=C1N/C(=N\N=C\c2cccnc2)SC1Cc1ccc(SC(F)F)cc1 (stereo not given) | 2.9 | 9% | -0.8% | 5 | -21% | -2 | -8%
Cc1cc(NC(=O)c2ccc3[nH]c(C)c(C)c3c2)ccn1 | -10 | 8% | -0.7% | 2 | 4% | -12 | u
CCOC(=O)c1cc2c(ccn2C)n1CC(=O)N(Cc1ccccc1)c1ccccc1 | -0.5 | -40%[inhibitor] | u | -17 | 9% | 10 | -21%
Cc1cccc(C)c1OCC(=O)NNC(=S)NC(=O)C1CC1 | x | -19% | -0.2% | 6 | 25% | 14 | 4%
CC(=O)N/N=C/c1cc([N+](=O)[O-])ccc1OCCOc1ccccc1 | -2.9 | -31%[inhibitor] | -2.1% | 11 | 14% | 1 | -9%
CCOc1ccccc1C(=O)NCC(=O)OCc1c(C)noc1C | 11 | -1% | -5.9% | 1 | -1% | 8 | -12%
Cc1cc(C)nc(NS(=O)(=O)c2ccc(NC(=O)c3ccc(S(=O)(=O)N4CC(C)OC(C)C4)cc3)cc2)n1 (stereo not given) | -1.5 | 8% | -1.1% | -3 | -6% | 4 | 3%
Cc1nc(N)nc(N)c1/C=C/C(C)(C)c1ccc(Cl)cc1 | -1.1 | 11%[15.4 µM] | x | -48 | -23% | 15 | -10%
NC(=O)CSc1nnc(-c2ccc3c(c2)OCO3)o1 | -2.5 | -1%[15.4 µM] | x | -1 | 13% | 7 | 14%
CNC(=O)COc1ccc(Cl)c2cccnc12 | 0.4 | -8% | -26% | 7 | u | 1 | 9%
CC(C)c1nc2n[nH]c(N)c2c2c1CCCC2 | 4.1 | -20% | -5.8% | 3 | 19% | 2 | -15%
N#CCOc1nc(N2CCOCC2)nc(N2CCOCC2)n1 | -1.9 | -32%[inhibitor] | -3.9% | -5 | 12% | 1 | 6%
COc1ccc(/C=N/NC(=O)c2ccc(N)cc2)cc1Cn1cc([N+](=O)[O-])cn1 | -2.0 | 23% | -0.2% | 6 | -3% | -2 | -12%
CN(C(=O)COC(=O)c1ccc2c(=O)n3c(nc2c1)CCC3)C1CCS(=O)(=O)C1 (stereo not given) | -12 | -4%[15.4 µM] | -3.0% | 3 | 16% | 12 | 8%
Oc1ccc(-c2[nH]ncc2-c2ccc(Cl)cc2)c(O)c1 | 0.2 | 21% | -16% | -8 | 0% | 11 | -15%
O=C(c1ccc(NS(=O)(=O)c2ccc(F)cc2)cc1)N1CCOCC1 | x | -8% | 2.2% | 9 | x | 2 | -3%

For reference, part of the list above:
SMILES | Menin MLL FP FL | gsp ag | ClpP mod | TRPV1 potentiator | Sfp PPTase inh | TRPML1 blocker | gsp antag
COc1ccc(N2CCN(C(=O)CCCNC(=O)Cn3cnc4sc(C)c(C)c4c3=O)CC2)cc1 | -2.0 | -8%[15.4 µM] | 0.8% | 0 | 10% | 10 | 13%
OC(COc1ccccc1)CN1CCN(Cc2ccc3c(c2)OCO3)CC1 (stereo not given) | -1.5 | -38%[inhibitor] | x | -20 | -17% | -21 | 8%
